Screening data (PubChem BioAssay)
SARS PLP yeast: inhibitors of SARS-CoV papain-like protease in yeast. S. cerevisiae expressing SARS-CoV PLpro, growth rescue; control for the full effect not named in the record. Potency, µM (doses to about 32.9 µM), for inactives: top-dose activity, positive = growth rescue. 330,000 compounds, 0.19% hits; active means well fitted rising curve with a large enough effect; inconclusive means small, poorly fitted or top-dose-only effect; inactive means no such curve, though single readings can be large or run the other way; note: 0% is about no effect; nearly all actives have a fitted effect of over 55% in size; growth read by luminescence after 48 h
Marburg entry inh: inhibitors of Marburg virus binding or cell entry | Potency, µM (titrated, usually from 37.8 µM), without a hit: top-dose activity change, negative = inhibition, actives largely listed as inhibitors | Marburg virus pseudotyped entry inhibition, cell reporter; control for the full effect not named in the record; about a third of the inactives were read at about 46 µM | 300,000 compounds, 1.8% hits; active = well fitted inhibition curve with a large enough effect; inconclusive = small, poorly fitted or top-dose-only effect, or effect the other way; inactive = flat fitted curve, though single readings scatter; tested in HEK293 cells; about a fifth of its hits are not listed in these tables; note: % is set by controls: 0 for no effect and ±100 for the full control effect; luciferase read-out
Cruzain Triton: blocks cruzain activity in presence of Triton detergent | P25779 | purified cruzain, Z-FR-AMC fluorescence, 0.01% Triton | Potency, µM, without a hit: max response, negative = inhibition, hits mostly inhibitors | 200,000 compounds, 0.43% hits | AID 1478;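 note: plate controls were neutral wells for no effect and buffer without enzyme for full effect; nearly all actives have a fitted effect of over 40% in size; top concentration of the series not given in the record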
Target sequence (P25779 123-467 limits assumed): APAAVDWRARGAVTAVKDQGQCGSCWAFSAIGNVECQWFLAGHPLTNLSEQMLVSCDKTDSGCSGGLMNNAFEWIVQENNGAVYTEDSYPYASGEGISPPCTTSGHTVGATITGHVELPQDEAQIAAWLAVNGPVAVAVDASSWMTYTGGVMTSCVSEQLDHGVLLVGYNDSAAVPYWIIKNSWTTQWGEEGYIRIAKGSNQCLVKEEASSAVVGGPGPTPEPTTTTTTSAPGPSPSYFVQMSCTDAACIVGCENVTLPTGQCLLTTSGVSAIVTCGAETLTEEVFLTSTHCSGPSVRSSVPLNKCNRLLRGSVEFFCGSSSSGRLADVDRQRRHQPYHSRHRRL
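Cruzain (1.5 nM) preincubated 15 min at RT with compound in 100 mM sodium acetate pH 5.5, 5 mM DTT, 0.01% Triton X-100. Reaction started with 2 uM Z-FR-AMC; AMC fluorescence (ex 360/em 450 nm) change over 60 s gave rate.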
LASV entry inh: inhibitors of Lassa virus binding or cell entry; Potency, µM (highest dose often 37.9 µM), for inactives: top-dose activity change, negative = inhibition, actives largely listed as inhibitors; AID 540256; Lassa virus pseudotype entry inhibition, cell reporter; control for the full effect not named in the record; 300,000 compounds, 1.2% hits; active means well fitted inhibition curve with a large enough effect; inconclusive means small, poorly fitted or top-dose-only effect, or effect the other way; inactive means flat fitted curve, though single readings scatter; tested in HEK293 cells; note: % is set by controls: 0 for no effect and ±100 for the full control effect; nearly all actives have a fitted effect of over 50% in size; luciferase read-out
Cruzain noTriton: cruzain (T. cruzi) inhibition without detergent; P25779; purified cruzain, Z-FR-AMC fluorescence, no detergent; Potency, µM, for the others: max response, negative = inhibition, usual class: inhibitors; 200,000 compounds, 2.3% hits;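 note: plate controls were enzyme without inhibitor for no effect and buffer without enzyme for full effect; nearly all actives have a fitted effect of over 40% in size; top concentration of the series not given in the record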
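Detergent-free condition (0.00005% Triton X-100) in acetate buffer pH 5.5 with DTT. 1.5 nM enzyme and compound were pre-mixed 15 min, then 2 uM Z-FR-AMC substrate added; reaction progress from fluorescence change between first and third reads (60 s).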
RE007 growth inh: less growth of the S. pombe RE007 Vpr strain; S. pombe RE007 Vpr strain, BacTiter-Glo ATP luminescence, 24 h; control for the full effect not named in the record; Potency, µM (top dose mostly 92.2 µM), for the others: top-dose activity change, negative = less growth; 360,000 compounds, 0.21% hits; active = well fitted falling curve with a large enough effect; inconclusive = small, poorly fitted or top-dose-only effect; inactive = no such curve, though single readings can be large or run the other way;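 note: % is set by controls: 0 for no effect and ±100 for the full control effect; nearly all actives have a fitted effect of over 50% in size; the assay follows cell death caused by Vpr and the record does not say whether a fall means rescue or toxicity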
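Fission yeast strain RE007, carrying one chromosomally integrated HIV-1 vpr copy, was seeded at OD 0.01 in PMG+AL medium with 23 nL pinned compound. After 24 h at 30 °C and 99% humidity, viability was read by BacTiter-Glo luminescence.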
StopGo reporter: lowers the luciferase signal of an FMDV 2A StopGo reporter. human cells with a luciferase reporter of 2A StopGo recoding; control for the full effect not named in the record. Potency, µM (titrated, usually from 57.9 µM), for the others: at the top dose signal change, negative = less light. 410,000 compounds, 1.2% hits; active = well fitted falling curve with a large enough effect; inconclusive = small, poorly fitted or top-dose-only effect; inactive = no such curve, though single readings can be large or run the other way; tested in HEK293T cells; note: % is set by controls: 0 for no effect and ±100 for the full control effect; nearly all actives have a fitted effect of over 45% in size; luciferase light after 4 h
NS1 function inh: influenza NS1 inhibition; S. cerevisiae slowed by influenza A NS1, growth recovery by OD600; Potency, µM (highest dose often 46.1 µM), for inactives: top-dose activity, positive = more growth; 270,000 compounds, 0.4% hits; AID 2326; active means well fitted rising curve with a large enough effect; inconclusive means small, poorly fitted or top-dose-only effect; inactive means no such curve, though single readings can be large or run the other way; note: nearly all actives have a fitted effect of over 50% in size
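Recovery from NS1-induced slow growth read by OD600 in budding yeast switched to galactose assay medium (pH 6.0, -URA) at 1:100 dilution. Compound 23 nl per well; the matching strain lacking NS1 serves as control.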
* hit, by the source's call; u = inconclusive; x = no result given; [ ] = another dose, or the depositor's remark. Unless noted, calls come from the whole dose curve; as a rule, active = well fitted curve in the direction sought with a large enough effect; inconclusive = small, poorly fitted or top-dose-only effect, or another doubt; inactive = no such curve, though single readings can be large; an effect the other way counts as inactive or inconclusive. Potency is the fitted concentration of half-maximal effect.

Below each compound – SARS PLP yeast, Marburg entry inh, Cruzain Triton, LASV entry inh, Cruzain noTriton, RE007 growth inh, StopGo reporter, NS1 function inh
> Cc1ccc(-c2n[nH]c3c2C(c2ccc(C(C)(C)C)cc2)NC3=O)cc1 (stereo not given)
 : x, -1.1%[46.1 µM], 6.6%, 5.1%[46.1 µM], -1.3%, x, -13.7%, x
> CCCCC(c1nnnn1C1CCCC1)N1CCN(C(=O)c2ccco2)CC1 (stereo not given)
 : 2.5%, -5.7%[46.1 µM], 0.0%, -7.3%, 17.2%, 6.2%, 8.7%, -6.2%
> COc1ccc(NC(=O)/C(C#N)=C/c2cc(C)n(-c3ccc(F)cc3)c2C)cc1
 : x, 4.6%[46.1 µM], 0.2%, 11.5%[46.1 µM], -15.1%, x, -6.9%, x
> Nc1nncn1C(=O)CCc1ccccc1
 : -4.9%, 16.1%, 2.4%, 16.0%, -4.5%, 3.1%, -18.0%, 0.3%
> CC1(C)CC2CC(C)(CN2S(=O)(=O)c2cccc(N)c2)C1 (stereo not given)
 : -2.4%, -4.0%, -5.0%, -25.7%, -8.5%, -8.4%, 9.6%, 6.4%
> Cc1sc2ccccc2[n+]1CC(=O)O
 : 0.5%, 6.8%[46.1 µM], x, -6.2%, x, 8.2%, 4.7%, 9.9%
> O=C(CNC(=O)c1ccccc1)Nc1cccc(C(F)(F)F)c1
 : 15.2%, -4.9%, -0.4%, -6.0%, -11.4%, 4.7%, 9.1%, 6.5%
> C[C@@H](C(=O)NCc1ccccc1)N1C(=O)C2CC=CCC2C1=O (stereo not given in full)
 : 1.6%, 10.8%, -0.9%, -1.4%, -6.7%, -0.2%, -21.6%, 11.0%
> CCN1CCCC1CNC(=O)CN1C(=O)COc2ccc(C)cc21 (stereo not given)
 : 9.7%, x, -3.5%, x, -4.2%, -2.4%, -25.9%, u
> COc1cc(S(=O)(=O)N2CCN(c3ccccc3)CC2)ccc1F
 : 0.9%, 7.2%, x, -14.1%, x, 1.0%, -11.0%, -8.1%
> CN(c1ccc([N+](=O)[O-])cc1C(N)=O)C1CCCCC1
 : -0.3%, 0.5%[46.1 µM], x, -10.7%[46.1 µM], x, -11.5%, -23.6%, -1.8%
> CN(Cc1ccccc1)CC(O)COc1ccc(CNCc2cc3ccccc3s2)cc1 (stereo not given)
 : -3.4%, x, x, x, x, -4.7%, -18.0%, -14.8%
> COc1ccc(N(C(=O)c2snc(C(N)=O)c2N)C(C(=O)NCc2ccccc2)c2ccc(O)cc2)cc1 (stereo not given)
 : -2.0%, -13.5%, x, 0.731µM*, x, -9.9%, -14.7%, -1.0%
> NC12CN3CN(CN(C3)C1)C2 (tested in a mixture with another compound)
 : -7.0%, -3.9%, 5.0%, 7.4%, -2.0%, 2.2%, x, -5.8%
> O=C(Nc1ccc(NC(=O)c2ccccc2F)cn1)c1ccco1
 : -6.7%, 3.98µM*, x, u, x, u, -43.5%, -54.6%
> O=C(COc1cccc(-n2cnnn2)c1)Nc1ccccc1
 : 19.0%, 1.7%, 1.3%, 11.8%, -9.2%, -0.9%, 15.0%, 3.4%
> COC(=O)c1ccc(CN2CCC(CO)(Cc3cccc(OC)c3)CC2)cc1
 : 0.6%, x, x, x, x, -9.8%, -27.3%, 2.8%
> Cc1ccsc1CCN1C(=O)N(c2ccccc2)C(=O)C1CC(=O)Nc1ccc(F)cc1 (stereo not given)
 : x, u, -0.2%, -17.5%[46.1 µM], -8.1%, x, -2.2%, x
> CCOC(=O)c1cn(CC(=O)Nc2ccc(C)cc2)nn1
 : 2.7%, -2.9%, 4.3%, 3.5%, 3.6%, 11.4%, 6.1%, -8.9%
> S=C1CSc2ccccc2N1
 : -1.3%, 23.9%, x, -4.6%, x, -2.0%, 1.9%, x
> CC(=O)c1c(C)[nH]c(C(=O)O)c1C
 : -1.6%, x, x, x, x, -2.6%, -11.1%, -1.4%
> Fc1ccc(-c2csc(=Nc3cccc(C(F)(F)F)c3)n2Cc2ccc3c(c2)OCO3)cc1
 : x, 5.5%[46.1 µM], -1.3%, 17.2%[46.1 µM], -4.7%, x, u, x
> Cc1cccc(-c2nc(C)c(CCNC(=O)C(=O)Nc3ccccc3C#N)s2)c1
 : x, x, 0.7%, -24.0%[46.1 µM], -5.2%, x, -18.8%, x
> O=C(N/N=C\c1ccc(COc2ccc([N+](=O)[O-])cc2)o1)c1ccc(Cl)cc1
 : -3.3%, u, -1.6%, u, -13.2%, -23.5%, u, 5.9%
> CCOC(=O)Cc1csc(NC(=O)c2c(-c3c(Cl)cccc3Cl)noc2C)n1
 : -8.1%, 4.7%, -5.3%, u, -26.5%, 8.5%, -11.1%, u
> CN(C)S(=O)(=O)c1ccc(C(=O)NCc2nnc(SCC(=O)N3CCCC3)o2)cc1
 : -2.7%, 13.9%, x, 9.9%, x, 2.0%, -19.0%, 5.1%
> Nc1cc(-c2ccccc2)nn1Cc1ccccc1
 : -0.6%, u, x, x, x, -8.4%, 1.3%, x
> Cc1cc(N2CCC(C)CC2)nc(-n2nc(C)cc2C)n1
 : -15.0%, u, 5.1%, -6.8%, 14.2%, -2.3%, u, -3.0%
> O=c1c2ccccc2sn1-c1ccccc1
 : -22.6%, u, -2.4%, u, -25.2%, 8.91µM*, u, -106.6%
> CCN(CC)CCCNc1nc2cc(OC)c(OC)cc2c2nc(-c3cccnc3)nn12
 : -1.9%, u, -3.4%, u, 6.1%, -19.1%, -16.4%, -5.3%
> CC(C)CNC(=O)C1CCCN(C(=O)NCc2ccccc2)C1 (stereo not given)
 : -0.1%, 2.9%, x, -0.4%, x, 6.2%, -18.8%, -0.8%
> COc1cccc(CNC(=O)Cn2ncn3nc(-c4cccs4)cc3c2=O)c1OC
 : x, 12.0%[46.1 µM], -0.4%, -28.5%[46.1 µM], -11.4%, x, -12.4%, x
> Cc1ccsc1C(=O)Nc1ccc(F)c([N+](=O)[O-])c1
 : -13.4%, 7.4%, -1.0%, u, 1.5%, -1.7%, 5.3%, -6.1%
> Cc1ccc(/C=C/C(=O)N2CC(=O)Nc3ccccc32)o1
 : 0.8%, 11.1%[46.1 µM], x, -11.2%[46.1 µM], x, 1.3%, -7.8%, 27.1%
> Cn1nc(C(F)(F)F)cc1-c1ccc(/C=C(\C#N)C(=O)c2ccccc2)s1
 : 0.7%, 13.0%[46.1 µM], x, 10.8%[46.1 µM], x, 2.2%, 0.8%, 2.0%
> O=C(Nc1ccc(Oc2cccnc2)cc1)C1CCN(Cc2ccc(F)cc2)CC1
 : -1.9%, u, x, u, x, -4.9%, 0.0%, 15.6%
> CCOCCCNC(=O)CN1C(=O)c2cccnc2Sc2ccccc21
 : x, x, -1.1%, -1.1%[46.1 µM], -3.8%, x, 3.3%, x
> CCOCCCNC(=S)Nc1ccc2nc(N3CCN(CC)CC3)cc(C)c2c1
 : -1.2%, -28.5%[46.1 µM], x, 20.1%[46.1 µM], x, -20.3%, -14.0%, -7.5%
> O=C(c1ccc(CS(=O)Cc2ccc(Cl)cc2)o1)N1CCN(c2ccccn2)CC1 (stereo not given)
 : 1.1%, u, x, u, x, -7.5%, -20.2%, -16.4%
> CCn1c(COc2ccc(=O)n(-c3ccccc3)n2)nnc1SC
 : -0.6%, -16.9%[46.1 µM], x, 3.6%, x, 3.9%, 0.4%, x
> Cc1ccc(-c2nc(CS(=O)(=O)CC(=O)NCCCN3CCN(C)CC3)c(C)o2)cc1
 : 21.8%, x, 6.3%, x, -4.2%, 3.0%, -17.9%, u
> Cc1ccc(CNC(=O)CNS(=O)(=O)c2ccc3nc(C)sc3c2)cc1
 : 1.6%, 0.1%[46.1 µM], x, -1.1%[46.1 µM], x, 7.7%, 40.8%, x
> CCc1ccc2oc(C(=O)Nc3cc(C)ccc3C)cc(=O)c2c1
 : x, u, -2.7%, 12.4%[46.1 µM], -19.9%, x, -7.1%, x
> CCOC(=O)C(=CNc1cc(C)nn1-c1ccccc1)C(=O)OCC
 : -4.1%, 2.8%, -5.0%, u, -2.8%, 2.4%, u, -2.1%
> O=C(Nc1ccc(S(=O)(=O)N2CCCC2)cc1)c1cc(=O)c2ccccc2o1
 : 0.7%, x, x, x, x, 4.6%, 0.0%, -4.1%
> Cc1ccc(CN2C(=O)SC(Nc3ccc(Cl)cc3)C2=O)cc1 (stereo not given)
 : x, -15.4%[46.1 µM], -7.8%, 21.2%[46.1 µM], -3.9%, x, -18.2%, x
> CC(=O)N1C(C(=O)O)CSC1c1cccc(C)c1 (stereo not given)
 : -3.2%, -4.7%, 1.9%, -10.3%, 8.2%, 6.6%, -7.6%, 5.7%
> CCCCN1C(=O)C(NC(C)=O)c2cc(Br)ccc21 (stereo not given)
 : -5.0%, u, -2.4%, u, u, 20.3%, 0.0%, 5.4%
> O=C(NCCC(=O)N1CCCC(C(F)(F)F)C1)c1ccccc1Cl (stereo not given)
 : -2.8%, u, x, 2.4%, x, 25.7%, -21.2%, 10.8%
> COCCOC(=O)C1=C(C)NC(=O)NC1c1ccc(OC(=O)c2ccco2)c(OC)c1 (stereo not given)
 : -0.5%, 12.1%, 3.3%, 13.3%, -1.7%, 2.7%, -15.9%, 4.1%

(list continues)
Below each compound – SARS PLP yeast, Marburg entry inh, Cruzain Triton, LASV entry inh, Cruzain noTriton, RE007 growth inh, StopGo reporter, NS1 function inh
> CCOc1ccc(CCNC(=O)C2CCC(=O)N2CCc2ccccc2)cc1OCC (stereo not given)
 : 3.6%, -15.2%, 3.6%, -0.5%, -1.4%, -0.1%, 6.9%, -4.2%
> O=C(COC(=O)Cc1ccccc1F)Nc1ccc2c(c1)OCCO2
 : -33.0%, 5.7%, -2.6%, 3.8%, -1.3%, -18.6%, -9.8%, 13.6%
> Cc1nn(C)cc1/C=C/C(=O)c1cccs1
 : x, u, -11.2%, 4.9%, -23.2%, -5.0%, 45.0%[activator], -29.4%
> CC(C)NC(=O)NC(=O)CSc1ccc(S(=O)(=O)N2CCCC2)cn1
 : -2.0%, 25.2%, x, u, x, 4.2%, -14.8%, x
> CCOc1cc(C)c(C(C)C)cc1S(=O)(=O)n1ccnc1CC
 : x, -19.7%[46.1 µM], -8.4%, -28.9%[46.1 µM], u, x, 13.2%, x
